Screens: PubChem BioAssay, National Center for Advancing Translational Sciences (NCATS)
HTT prom inh: inhibitors of huntingtin promoter activity; HEK293 HTT promoter firefly luciferase reporter (activity 0% = vehicle and -100% = no light), 24 h; Potency, µM (series often up to 57.5 µM), for the others: at the highest dose activity change, negative = inhibition, most hits filed as inhibitors; hit rate 0.93% among 48,000; active = well fitted inhibition curve with a large enough effect; inconclusive = small, poorly fitted or top-dose-only effect; inactive = no such curve, though single readings can be large or run the other way; note: nearly all actives have a fitted effect of over 50% in size
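HEK293 luciferase promoter-reporter cells (2,500/well) plated 24 h, then compounds added at up to 57.5 uM final for 24 h at 37 °C. Firefly luminescence by Dual-Glo, normalized to vehicle (0%) and zero RLU (-100%).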
PMP22 txn prim: modulates PMP22 transcription in S16 Schwann cells; hit rate 2% among 43,000; Potency, µM (top dose mostly 57.5 µM), for inactives: at the highest dose activity change, negative = inhibition, actives largely listed as inhibitors; S16 Pmp22-F2sN Schwann cells (luciferase reporters placed in the Pmp22 gene), FLuc/NLuc coincidence luminescence, 24 h; active = clear falling dose curves in both reporters; inconclusive = both reporters move, but less clearly or upward; inactive = either reporter flat; the % is the NLuc reporter signal; note: % is set by controls: 0 for no effect and ±100 for the full control effect; some results filed as inactive show a strong effect at the top dose
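Rat S16 Pmp22-F2sN cells, 500-1,000/well in phenol red-free DMEM + 10% FBS, compound-treated 24 h (37C, 5% CO2). Luminescence: FLuc read, Stop&Glo added, NLuc read.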
Starred values were filed as active, the others as inactive; ? = inconclusive; · = no result given; & = joins results of further samples; [ ] = dose if it differs, or a comment. Potency is the fitted concentration of half-maximal effect.

SMILES	HTT prom inh	PMP22 txn prim
CC(C)c1ccc(NC(=O)c2cc(S(=O)(=O)N3CCc4ccccc4C3)ccc2F)cc1	-20.0%	-26.3%
CCOC(=O)Cc1ccc(NC(=O)Nc2cccc(OCc3cc(=O)n4cc(C)ccc4n3)c2)cc1	5.6%	3.0%
COc1ccc(NC(=O)c2nc(-c3ccc(C)cc3)n3c2CCCCC3)c(OC)c1	9.2%	-2.2%
O=C(NCc1ccco1)c1ccc2c(c1)N(Cc1cccc(Cl)c1)C(=O)c1ccccc1S2(=O)=O	?	-3.8%
CC(=O)N1CCC(N(C(=O)Nc2c(F)cccc2F)C(C)C)CC1	?	-0.3%
CCOC(=O)c1noc2nc(C)n(Cc3cccc(C#N)c3)c(=O)c12	-15.6%	13.7%
COc1ccc(CCN2C(=O)c3[nH]nc(-c4ccccc4O)c3C2c2ccc(O)c(OC)c2)cc1 (stereo not given)	-14.8%	?
O=C(NCCc1ccccc1)c1ccc(Nc2nc3ccccc3n3nnnc23)cc1	-10.5%	?
CNC[C@H](O)c1cccc(O)c1	4.1%&7.0%	·
Cc1cc(O)c(C(c2ccccc2)N2CCCCC2)c(=O)n1Cc1ccco1 (stereo not given)	-6.3%	7.6%
O=C(Nc1cc2c(cc1C(=O)c1ccccc1)OCCO2)c1ccc(Br)cc1	-7.6%	-26.0%
COCCCNS(=O)(=O)c1ccc(N2CCCCS2(=O)=O)cc1	?	4.9%

A draw from above in order of SMILES length, rising:
SMILES	HTT prom inh	PMP22 txn prim
CCOC(=O)c1noc2nc(C)n(Cc3cccc(C#N)c3)c(=O)c12	-15.6%	13.7%
O=C(NCCc1ccccc1)c1ccc(Nc2nc3ccccc3n3nnnc23)cc1	-10.5%	?
O=C(Nc1cc2c(cc1C(=O)c1ccccc1)OCCO2)c1ccc(Br)cc1	-7.6%	-26.0%
COc1ccc(CCN2C(=O)c3[nH]nc(-c4ccccc4O)c3C2c2ccc(O)c(OC)c2)cc1 (stereo not given)	-14.8%	?

Remaining list, next part:
SMILES	HTT prom inh	PMP22 txn prim
CCCCNC(=O)c1ccc2c(=O)n(Cc3ccc(OC)cc3)c(=O)[nH]c2c1	0.9%	4.2%
CCOC(=O)c1nc(Nc2ccccc2C)c2ccccc2n1	-26.4%	16.8%
O=C(OCC1CCCO1)c1ccc2c(c1)N(Cc1ccccc1)C(=O)c1ccccc1S2(=O)=O (stereo not given)	-1.6%	-3.5%
Cc1ccc(/C=C/c2onc(C)c2S(=O)(=O)N2CCC(C(=O)NCc3ccc(N(C)C)cc3)CC2)cc1	-18.9%	?
COc1ccc(C(=O)Nc2nc3nc(C)c(Cl)c(=O)n3[nH]2)cc1	0.7%	-12.2%
CCC(NC(=O)Nc1cccc(C)c1)c1c(-n2cccc2)sc2c1CCN(C)C2 (stereo not given)	-21.3%	?
CC(=O)c1cccc(NC(=O)C2CCCN(c3nnc(-n4cccc4)s3)C2)c1 (stereo not given)	-18.3%	-27.3%
O=C(CCc1ccccc1)N(Cc1cccnc1)c1nc2c(F)cc(F)cc2s1	?	?
CCc1ccccc1NC(=O)CN(c1ccccc1OC)S(=O)(=O)c1ccc(C)cc1	?	?
COc1ccc(Br)cc1CNC(=O)CCSCc1ccc(Cl)cc1	-14.2%	?
COc1cccc(NC(=O)c2ccc3nc(Cc4ccccc4)oc3c2)c1	?	-9.2%
Cc1ccc(NC(=O)CSc2nc(=O)n(Cc3ccco3)c3c2CCC3)cc1F	0.0%	8.8%
CC(=O)OCC(=O)[C@@]1(O)CC[C@H]2[C@@H]3CCC4=CC(=O)C=C[C@]4(C)[C@H]3[C@@H](O)C[C@@]21C	-11.8%	·
Cc1ccc(Cl)cc1NC(=O)Cn1cc(S(=O)(=O)Cc2ccccc2Cl)c2ccccc21	-15.5%	?
Oc1c(C(c2ccccc2F)N2CCC3(CC2)OCCO3)sc2nc(-c3ccco3)nn12 (stereo not given)	2.0%	3.1%
Cc1c(C(=O)NCc2ccc(Cl)cc2)sc2nc3n(c(=O)c12)CCCC3	-6.0%	-31.0%
Cc1ccc(CN(C(=O)COc2ccc(Cl)cc2C)C2CCS(=O)(=O)C2)o1 (stereo not given)	-23.1%	-26.4%
COc1cccc(NC(=O)CSC2=Nc3ccccc3C3=NC(CCC(=O)NC4CCCCC4)C(=O)N23)c1 (stereo not given)	-9.4%	-15.1%
CC(C)c1ccc(NC(=O)C2(C)Cc3ccccc3C(=O)O2)cc1 (stereo not given)	25.4%	-13.7%
CC[N+](CC)(CC)CCOc1ccc(/C=C/c2ccccc2)cc1	?	·
Cc1ccc(-n2ncc(C(=O)NCc3ccccc3)c2C2CCN(C(=O)OC(C)(C)C)CC2)cc1	?	?
COc1ccc(-c2cn3c(n2)sc2cc(C(=O)NC(C)C45CC6CC(CC(C6)C4)C5)ccc23)cc1 (stereo not given)	33.2%[activator]	-8.4%
COc1cccc(NS(=O)(=O)c2ccc3[nH]cc(C(=O)N(C)C4CCCCC4)c(=O)c3c2)c1	3.4%	14.9%
Cc1ccc2nc(NC(=O)CSc3[nH]c(=O)ncc3C)sc2c1	44.0%[activator]	-8.1%
Cc1ccccc1-c1noc(-c2ccc(N3CCN(C)CC3)c([N+](=O)[O-])c2)n1	2.24µM*	?
Cc1cccc(NC(=O)Cn2cc(C(=O)C3CCCCC3)c3ccccc32)c1C	?	10µM*
O=C(Cn1ncc2c3ccccc3n(Cc3ccc(F)cc3)c2c1=O)NCCCN1CCCCC1	-16.1%	8.7%
Cc1ccccc1NC(=O)CSc1nc2ccc(NC(=O)c3cccs3)cc2s1	-6.1%	-11.3%
CN(C)c1ccc(CNC(=O)c2ccc(NC(=O)N3CCCCc4ccccc43)cc2)cc1	-10.3%	-15.9%
CN(C(=O)CSc1nc2ccccc2n1CC(=O)NCc1ccc(F)cc1)c1ccc(F)cc1	-24.5%	-11.5%
COc1ccc(C(=O)/C=C/c2cn(CC(O)CN3CCCCCC3)c3ccccc23)cc1OC (stereo not given)	-20.0%	?
COC(=O)CNC(c1ccccc1)c1cc(Br)ccc1NC(=O)c1ccccc1 (stereo not given)	-8.8%	-0.3%
Cc1ccc(NC(=O)CSc2nc3ccccc3c3nc(CCn4cncc4C)nn23)c(C)c1	0.0%	-14.5%
Cc1ccc(C)c(NC(=O)C2CCCN2S(=O)(=O)c2ccc3c(c2)CCCC(=O)N3)c1 (stereo not given)	-60.9%	-19.1%
COc1cccc(CN2C(=O)c3ccccc3Sc3ccc(C(=O)NCc4ccccc4)cc32)c1	-22.6%	0.7%
COc1ccc(CNS(=O)(=O)c2csc(C(N)=O)c2)cc1OC	-13.0%	-12.7%
CCCn1c(SCC(O)c2ccccc2)nc2ccccc21 (stereo not given)	-3.5%	-26.2%
O=C(CC1C(=O)OCCN1Cc1ccccc1)Nc1cccc(Cl)c1 (stereo not given)	?	-8.2%
COc1cccc(Cn2c(NCc3ccc(C)cc3)nc3c2c(=O)n(C)c(=O)n3C)c1	9.1%[11.5 µM]	-23.9%
CCc1cccc(C)c1NC(=O)CN1C(=O)C2(SCC(=O)N2c2cc(C)cc(C)c2)c2ccccc21 (stereo not given)	?	?
Cc1cc(NC(=O)c2cc(-c3cccc(Cl)c3)on2)nn1Cc1ccc(Cl)cc1	1.58µM*	-28.1%
CCc1ccc(-c2cc(C)no2)cc1S(=O)(=O)Nc1ccc(Cl)cn1	-22.3%	-153.2%
CCOc1ccc(NC(=O)Cn2c(=O)n(CCCS(=O)(=O)C3CCCCC3)c(=O)c3ccccc32)cc1	-7.3%	?
COc1cccc(N2CCN(C(=O)C3CCN(S(=O)(=O)c4c(C)noc4/C=C/c4ccccc4F)CC3)CC2)c1	?	27.4%
O=C(O)CCn1cnc2onc(-c3ccccc3Cl)c2c1=O	-16.5%	-3.9%
CCCC(=O)Nc1nnc(S(=O)(=O)N2CCCCCC2)s1	-8.9%	-1.8%
COc1cc2c(=O)c(S(=O)(=O)c3ccc(F)cc3)cn(Cc3ccccc3C)c2cc1OC	?	-23.6%
Cc1ccccc1Nc1c(-c2ccc(O)cc2)nc2c(C)cccn12	-16.1%	20.7%

Rewritten with two lines to a compound: part of the list above
Screens in order: HTT prom inh, PMP22 txn prim
CCOc1ccc(NC(=O)Cn2c(=O)n(CCCS(=O)(=O)C3CCCCC3)c(=O)c3ccccc32)cc1
→ -7.3%, ?
Cc1ccc2nc(NC(=O)CSc3[nH]c(=O)ncc3C)sc2c1
→ 44.0%[activator], -8.1%
COc1cccc(CN2C(=O)c3ccccc3Sc3ccc(C(=O)NCc4ccccc4)cc32)c1
→ -22.6%, 0.7%
CCCC(=O)Nc1nnc(S(=O)(=O)N2CCCCCC2)s1
→ -8.9%, -1.8%

Other structures.
SMILES	HTT prom inh	PMP22 txn prim
O=C(O)c1cc(NC2(c3ccccc3)C(=O)c3ccccc3C2=O)ccc1Cl	-2.9%	12.7%
COc1ccccc1NC(=O)CCn1cnc2ccccc2c1=O	13.0%	9.3%
Cc1ccc(Cl)cc1NC(=O)C1CCN(c2nnc(C)c3c(C)n(-c4ccccc4)nc23)CC1	0.4%	?
CCOc1ccc(NC(=O)Cc2c[nH]c3ccccc23)cc1	48.3%[activator]	-11.5%
COc1ccc(-c2ccc(=O)n(CC(=O)Nc3ccc(OC)c(OC)c3)n2)cc1	-28.0%	-14.3%
Cc1cccc(C(=O)Nc2nc(-c3nnn(-c4cc(C)ccc4C)c3C)ns2)c1	?	?
Cc1ccccc1CN1CCCN(CC(=O)Nc2ccc(F)cc2)S1(=O)=O	-29.3%	?
O=C(COc1ccccc1F)OCc1cc(=O)n2nc(C3CCCCC3)sc2n1	-5.0%	-4.9%
CCOCCc1nn2c(=O)cc(COC(=O)c3cccc(C)c3)nc2s1	1.2%	-12.5%
CCOc1ccccc1NC(=O)Cc1coc2c(C)c(C)ccc12	?	0.4%
COc1cc(NC(=O)Cn2c(=O)n(-c3ccccc3)c(=O)c3c4c(sc32)CCCC4)cc(OC)c1	-10.4%	-0.1%
CCOC(=O)CSc1nc2cc3c(cc2c(=O)n1CCCCCC(=O)NCc1ccc2c(c1)OCO2)OCO3	-3.0%	?
CCCN(CCC)CCCNC(=O)C1CCC(CNS(=O)(=O)c2cccc3nsnc23)CC1 (stereo not given)	2.8%	18.2%
COc1ccccc1N1CCN(C(=O)c2ccc(Nc3nc4ccccc4n4nnnc34)cc2)CC1	-24.7%	?
CCOC(=O)c1ccc(NC(=O)CSc2nc(-c3ccc(OC)cc3)cc(C(F)(F)F)c2C#N)cc1	-13.5%	-4.3%
CCOc1ccc(OCC)c(NC(=O)CN(C)S(=O)(=O)c2ccc3c(c2)CCCC(=O)N3)c1	?	20µM*
CCC(=O)N1CCc2cc(S(=O)(=O)NC(Cc3ccccc3)C(=O)Nc3ccccc3C)ccc21 (stereo not given)	-20.5%	33.6%
Cc1cccc(Cn2c(=O)n(CCCCC(=O)NCc3ccc4c(c3)OCO4)c(=O)c3ccccc32)c1	-7.4%	?
CCCOc1ccc(-c2nc3ccc(Br)cc3c(=O)o2)cc1	14.8%	-2.6%
COc1ccc(CNC(=O)c2oc3c(c2C)-c2nn(Cc4ccccc4Cl)cc2CC3)cc1	?	-46.8%
COc1ccc(Cl)cc1N(C)C(=O)c1cc2c(=O)oc3ccc(C)cc3c2s1	-0.9%	?
COc1ccc(-n2nc(C(=O)N3CCCC(C)C3)c3c4ccccc4n(C)c3c2=O)cc1 (stereo not given)	-18.5%	?
Cc1ccc(C)c(N2CCN(C(=O)CN3C(=O)COc4ccc(S(=O)(=O)N5CCC(C)CC5)cc43)CC2)c1	-17.5%	-20.9%
COc1ccc2c(CNCc3cccs3)c(C(=O)O)n(Cc3ccccc3C)c2c1	-2.7%	-1.6%

Whole records from above. Screens in order: HTT prom inh, PMP22 txn prim
Shown for `CCOc1ccc(OCC)c(NC(=O)CN(C)S(=O)(=O)c2ccc3c(c2)CCCC(=O)N3)c1` → ?, 20µM*
Shown for `CCCN(CCC)CCCNC(=O)C1CCC(CNS(=O)(=O)c2cccc3nsnc23)CC1` (stereo not given) → 2.8%, 18.2%

Continuation:
SMILES	HTT prom inh	PMP22 txn prim
COc1ccc(CNC(=O)c2ccc3c(c2)CCN3S(=O)(=O)c2ccc(Cl)cc2)cc1	?	-30.3%
COc1cccc(OCc2nc3ccccc3n2Cc2ccccc2)c1	0.3%	-25.4%
Cc1nc2sccn2c(=O)c1CCN1CCC(=C(c2ccc(F)cc2)c2ccc(F)cc2)CC1	-1.3%	·
CCCN1C(=O)c2[nH]nc(-c3ccc(F)cc3)c2C1c1ccc(O)c(OCC)c1 (stereo not given)	-2.1%	-2.8%
CCC(=O)N1CCc2cc(S(=O)(=O)CCC(=O)N3CCN(c4cccc(C)c4)C(C)C3)ccc21 (stereo not given)	-28.0%	?
O=C1CN(C(=O)c2ccc(S(=O)(=O)N3CCCC3)cc2)C(c2ccccc2)c2cc(Br)ccc2N1 (stereo not given)	?	-30.0%
Cc1ccc(CCNC(=O)c2ccc(CSCc3ccccc3C)o2)cc1	-1.0%	-11.4%
COCCCNC(=O)c1[nH]c2cc(OC)ccc2c1Sc1ccc(C)cc1	-4.6%	·
CCOC(=O)c1sc(NC(=O)c2nc3ncccn3n2)c(C(=O)OC(C)C)c1C	-20.9%	-2.5%
COc1cc(NC(=O)c2nn(-c3ccc(F)cc3)c(=O)n(C)c2=O)cc(OC)c1OC	-7.0%	-7.6%
